Screening results: PubChem BioAssay, Broad Institute
NOMO-1 viab = NOMO-1 AML cell viability reduction, primary screen, STK33 inhibitor project, CellTiter-Glo luminescence; NOMO-1 AML viability, 72 h; inhibition, % (test concentration not listed); 37,000 compounds, 7.5% hits; AID 2330, 2010;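 active means most replicates above 80%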;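 further: wells of about 30 µL received 25 nL stock; 0% = median of vehicle wells and 100% = reference inhibitor level; the first replicate is given; inactives centre near 10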
* = called active by the depositor. This is a subset; rates above refer to the full screens.

SMILES	NOMO-1 viab
COc1ccc(NC(=O)Nc2ccc3c(c2)CC(=O)N([C@@H](C)CO)C[C@H](C)[C@H](CN(C)C(=O)NC2CCCCC2)O3)cc1	7
Cc1ccc2c(c1)-c1c(ssc1=S)C(C)(C)N2C(=O)C(C)C	19
CCC(Oc1nc2ccccc2nc1-c1ccccc1NC(C)=O)C(=O)c1ccccc1 (configuration not stated)	6
Cc1ccc(S(=O)(=O)N(C)C[C@H]2Oc3ccc(N(C)C)cc3C(=O)N([C@@H](C)CO)C[C@H]2C)cc1	0
C/C(=C/CO)CC[C@@H]1[C@@](C)(O)CCC2C(C)(C)CCC[C@]21C (some centres not stated)	101*
CCOC(=O)c1nn(-c2ccc(OC)cc2)c(C(=O)OCC)c1NC(=O)C1CCCCC1	48
Cc1cnn(CCCNC(=O)c2cc(-c3cccnc3)nc3ccc(Cl)cc23)c1	30
CC(C)=CCc1c(O[C@@H]2O[C@H](CO)[C@@H](O)[C@H](O)[C@H]2O)cc(O)c2c1O[C@H](c1ccc(O)cc1)CC2=O	25
COc1ccc(CN(C)C[C@@H]2Oc3ccc(NS(=O)(=O)c4c(C)noc4C)cc3CC(=O)N([C@H](C)CO)C[C@H]2C)cc1	20
Cc1ccc(S(=O)(=O)Nc2cccc3c2O[C@H](CN(C)S(=O)(=O)c2cn(C)cn2)[C@@H](C)CN([C@H](C)CO)C3=O)cc1	17
COc1ccccc1C(=O)Nc1ccccc1C(=O)NCc1ccco1	10
C[C@@H]1CN([C@H](C)CO)C(=O)c2cccc(NC(=O)NC3CCCCC3)c2O[C@H]1CN(C)S(=O)(=O)c1cn(C)cn1	-20
Cc1noc(C)c1NC(=O)Nc1ccc2c(c1)C(=O)N([C@@H](C)CO)C[C@H](C)[C@H](CN(C)Cc1ccc3c(c1)OCO3)O2	1
COc1cc(SC)ccc1-c1nc2ccncc2[nH]1	26
C[C@@H]1CN([C@H](C)CO)C(=O)c2cc(NC(=O)Nc3ccc(F)cc3)ccc2O[C@H]1CN(C)S(=O)(=O)c1ccc(Cl)cc1	2
COc1cc(CO)c(CC(=O)NN)cc1OC	-3
COc1ccc(NC(=O)Nc2cccc3c2O[C@@H](CN(C)Cc2ccc(C(=O)Nc4ccccc4N)cc2)[C@@H](C)CN([C@@H](C)CO)C3=O)cc1	129*
COc1ccc(S(=O)(=O)Nc2ccc3c(c2)C(=O)N([C@H](C)CO)C[C@H](C)[C@@H](CN(C)S(=O)(=O)c2ccccc2)O3)cc1	3
COc1ccc(S(=O)(=O)N(C)C[C@H]2Oc3c(NC(=O)Nc4ccc5c(c4)OCO5)cccc3C(=O)N([C@H](C)CO)C[C@H]2C)cc1	-1
C[C@@H]1CN([C@@H](C)CO)C(=O)c2cc(NC(=O)Cc3ccccc3)ccc2O[C@H]1CN(C)S(=O)(=O)c1ccccc1	2

Compounds from the list above containing a Cl atom, in the order listed:
SMILES	NOMO-1 viab
Cc1cnn(CCCNC(=O)c2cc(-c3cccnc3)nc3ccc(Cl)cc23)c1	30
C[C@@H]1CN([C@H](C)CO)C(=O)c2cc(NC(=O)Nc3ccc(F)cc3)ccc2O[C@H]1CN(C)S(=O)(=O)c1ccc(Cl)cc1	2

Additional results
SMILES	NOMO-1 viab
CN(CC(=O)Nc1ccncc1)S(=O)(=O)c1ccc(Br)cc1	16
COc1cccc(Cc2nnc(-c3ccc(-c4cccs4)s3)o2)c1	9
Cc1sc2ncn(CC(=O)Nc3ccc(F)c(Cl)c3)c(=O)c2c1C	25
COc1ccc([N+](=O)[O-])cc1NC(=O)CN(c1ccc(Cl)cc1C)S(C)(=O)=O	9
COCCNc1ncnc2c1oc1ccccc12	20
COC(=O)c1ccc(NC(=O)CN2CCC(C(N)=O)(N3CCCCC3)CC2)cc1	-5
COc1ccc(S(=O)(=O)N(C)C[C@@H]2Oc3c(NC(=O)C4CCCCC4)cccc3C(=O)N([C@H](C)CO)C[C@H]2C)cc1	12
CCCCCC[C@@H]([C@@H](C)O)n1cnc2c(N)ncnc21	65
Cc1c(C(=O)Nc2nnc(SCc3ccccc3F)s2)oc2ccccc12	-9
C[C@@H]1CN([C@@H](C)CO)C(=O)c2cc(NC(=O)Cn3cnnn3)ccc2O[C@@H]1CN(C)CC1CC1	17
C[C@@H]1CN([C@@H](C)CO)C(=O)c2cc(NC(=O)c3ccncc3)ccc2O[C@H]1CN(C)Cc1ccc(Oc2ccccc2)cc1	32
COC1=CC(=O)CC(C)C12Oc1cc(OC)cc(O)c1C2=O (configuration not stated)	4
CN1CCc2c(c3ccccc3n2Cc2ccccc2)C1	-4
C[C@@H]1CCCCO[C@@H](CN(C)C(=O)Nc2ccc(F)cc2)[C@@H](C)CN([C@H](C)CO)C(=O)c2cc(NC(=O)Nc3cccc4ccccc34)ccc2O1	12
C[C@@H]1CCCCO[C@H](CN(C)S(=O)(=O)c2ccc(F)cc2)[C@@H](C)CN([C@H](C)CO)C(=O)c2cc(NC(=O)c3ccncc3)ccc2O1	-11
Cc1nnc(SCC(=O)c2c(C)[nH]c3ccccc23)s1	13
CC(C)NC(=O)Nc1ccc2c(c1)C(=O)N([C@H](C)CO)C[C@H](C)[C@@H](CN(C)S(=O)(=O)c1cccs1)OCCCC[C@@H](C)O2	8
Cc1coc(C)c1C(=O)CC1(O)C(=O)N(Cc2ccccc2)c2ccccc21 (configuration not stated)	16
CC(=O)c1cccc(NC(=O)C(Cc2ccccc2)N2C(=O)c3ccccc3C2=O)c1 (configuration not stated)	20
COc1ccc(S(=O)(=O)Nc2cccc3c2O[C@H](CN(C)C(=O)Nc2ccc4c(c2)OCO4)[C@H](C)CN([C@H](C)CO)C3=O)cc1	-12
Nc1nc(SCC(=O)Nc2ccc(Br)cc2Cl)n[nH]1	10
C[C@H]1CN([C@@H](C)CO)C(=O)c2cccc(N(C)C)c2O[C@@H]1CN(C)Cc1ccc2c(c1)OCO2	1
C[C@H]1CN([C@@H](C)CO)C(=O)Cc2cc(NS(=O)(=O)c3ccccc3)ccc2O[C@H]1CN(C)Cc1ccc(Oc2ccccc2)cc1	70
O=C(Nc1ccc(Oc2ccccc2)cc1)C1CC(=O)n2ncnc2N1 (configuration not stated)	-15
C[C@@H]1CN([C@H](C)CO)C(=O)Cc2cc(NS(=O)(=O)c3cccs3)ccc2O[C@H]1CN(C)C	4
C=CCn1c(=O)c2ccccc2n2nnc(C(=O)OCC)c12	33
C[C@H]1CN([C@@H](C)CO)C(=O)c2cccc(NS(=O)(=O)c3ccc(F)cc3)c2O[C@@H]1CN(C)S(=O)(=O)c1ccc(Cl)cc1	18
C[C@@H]1CN([C@H](C)CO)C(=O)Cc2cc(NC(=O)C3CCCCC3)ccc2O[C@@H]1CN(C)Cc1ccccc1	41
C[C@H]1CN([C@@H](C)CO)C(=O)Cc2cc(NS(=O)(=O)c3ccc(Cl)cc3)ccc2O[C@H]1CN(C)C	22
C[C@@H]1CN([C@H](C)CO)C(=O)Cc2cc(NC(=O)Cc3ccccc3)ccc2O[C@@H]1CN(C)S(=O)(=O)c1cn(C)cn1	6
C[C@H](CO)N1C[C@H](C)[C@H](CN(C)Cc2ccc(C(=O)Nc3ccccc3N)cc2)Oc2c(NC(=O)C3CC3)cccc2C1=O	122*
COc1cccc(OC)c1C(=O)NC(=S)NCc1cccnc1	2
C[C@H](CO)N1C[C@H](C)[C@@H](CN(C)Cc2ccc3c(c2)OCO3)Oc2ccc(NC(=O)Nc3ccc(F)cc3)cc2C1=O	-2
Cc1noc(C)c1S(=O)(=O)Nc1ccc2c(c1)C(=O)N([C@@H](C)CO)C[C@H](C)[C@H](CN(C)S(C)(=O)=O)O2	5
Cc1ccc(N(C(C)C(=O)Nc2cccc(Cl)c2C)S(C)(=O)=O)cc1C (configuration not stated)	14
O=C(O)c1cc2cc(Cc3cccnc3)ccc2o1	-18
C[C@@H]1CN([C@@H](C)CO)C(=O)c2cc(NC(=O)Cn3cnnn3)ccc2O[C@H]1CN(C)Cc1ccc(C(=O)O)cc1	7
CCCn1c2ccc(C)cc2c2nnc(SCCN3CCOCC3)nc21	60
O=[N+]([O-])c1ccccc1S(=O)(=O)NCCOc1ccc(Cl)cc1	-1
Cc1noc(C)c1S(=O)(=O)Nc1ccc2c(c1)CC(=O)N([C@H](C)CO)C[C@@H](C)[C@@H](CN(C)C)O2	-3

Rewritten with bars between the fields: three of the compounds above
SMILES | NOMO-1 viab
C[C@H]1CN([C@@H](C)CO)C(=O)Cc2cc(NS(=O)(=O)c3ccc(Cl)cc3)ccc2O[C@H]1CN(C)C | 22
C[C@H]1CN([C@@H](C)CO)C(=O)Cc2cc(NS(=O)(=O)c3ccccc3)ccc2O[C@H]1CN(C)Cc1ccc(Oc2ccccc2)cc1 | 70
Cc1noc(C)c1S(=O)(=O)Nc1ccc2c(c1)CC(=O)N([C@H](C)CO)C[C@@H](C)[C@@H](CN(C)C)O2 | -3

Continuation:
SMILES	NOMO-1 viab
Brc1c(Br)c(Br)c2n[nH]nc2c1Br	32
C[C@H]1CN([C@@H](C)CO)C(=O)c2cc(NS(=O)(=O)c3cn(C)cn3)ccc2O[C@H]1CN(C)C(=O)Nc1cccc2ccccc12	1
Cc1ccc(-c2noc(CN(C(=O)c3ccc([N+](=O)[O-])cc3)C(C)C)n2)cc1	-18
C[C@H](CO)N1C[C@H](C)[C@H](CN(C)Cc2ccc(C(=O)Nc3ccccc3N)cc2)Oc2ccc(NS(=O)(=O)c3ccc(Cl)cc3)cc2CC1=O	141*
COc1ccc(Cl)cc1NC(=O)c1ccccc1N(Cc1ccccc1)S(C)(=O)=O	26
CNC[C@H]1Oc2ccc(N(C)C)cc2C(=O)N([C@H](C)CO)C[C@@H]1C	-19
C[C@@H]1CN([C@@H](C)CO)C(=O)Cc2cc(NC(=O)CCCCCC(=O)Nc3ccccc3N)ccc2O[C@@H]1CN(C)S(=O)(=O)c1ccc(F)cc1	15
CS(=O)(=O)N(CC(=O)Nc1c(F)cccc1F)c1cc(Cl)c(Cl)cc1Cl	39
CS(=O)(=O)N(CC(=O)O)c1cc(Cl)c(Cl)cc1Cl	-7
COc1ncccc1C(=O)Nc1ccc(F)cc1F	4
COc1ccc(Cl)cc1NC(=O)Cc1coc2ccc3ccccc3c12	13
COc1ccc(S(=O)(=O)N(C)C[C@@H]2Oc3c(NC(=O)c4ccc(-c5nccs5)cc4)cccc3C(=O)N([C@@H](C)CO)C[C@@H]2C)cc1	41
O=C(CSc1nnc(-c2ccccc2)n1C1CCCCC1)Nc1ccccc1	21
COc1ccccc1NC(=O)C1=C(C)NC(=S)NC1c1ccccc1OCC(=O)O (configuration not stated)	6
COc1ccc(S(=O)(=O)N(C)C[C@@H]2Oc3c(NC(=O)Nc4ccccc4)cccc3C(=O)N([C@@H](C)CO)C[C@@H]2C)cc1	60
COc1ccccc1CNC(=O)c1ccccc1N(C)S(C)(=O)=O	20
C[C@@H]1CN([C@H](C)CO)C(=O)c2cc(NC(=O)Cc3ccccc3)ccc2O[C@@H]1CN(C)C(=O)Nc1ccccc1	10
Cc1ccc(-c2csc3ncnc(SCC(=O)Nc4ccccc4C(C)C)c23)cc1	8
O=C(NC(=O)c1cn2cc(C(F)(F)F)cc(Cl)c2n1)Nc1ccc(Cl)cc1	23
CNC[C@H]1OCCCC[C@@H](C)Oc2ccc(NC(=O)CCC(F)(F)F)cc2C(=O)N([C@H](C)CO)C[C@@H]1C	7

As a working copy, some entries already given:
SMILES	NOMO-1 viab
Brc1c(Br)c(Br)c2n[nH]nc2c1Br	32
C[C@H]1CN([C@@H](C)CO)C(=O)c2cc(NS(=O)(=O)c3cn(C)cn3)ccc2O[C@H]1CN(C)C(=O)Nc1cccc2ccccc12	1
Cc1ccc(-c2noc(CN(C(=O)c3ccc([N+](=O)[O-])cc3)C(C)C)n2)cc1	-18
C[C@H](CO)N1C[C@H](C)[C@H](CN(C)Cc2ccc(C(=O)Nc3ccccc3N)cc2)Oc2ccc(NS(=O)(=O)c3ccc(Cl)cc3)cc2CC1=O	141*
COc1ccc(Cl)cc1NC(=O)c1ccccc1N(Cc1ccccc1)S(C)(=O)=O	26

Continuation:
SMILES	NOMO-1 viab
CC1CCN(S(=O)(=O)c2ccc(NC(=O)c3ccc(C(C)(C)C)cc3)cc2)CC1	114*
NCCNS(=O)(=O)c1cccc2c(Cl)cccc12	31
CCOC(=O)c1c(CN2CCOCC2)n(C)c2ccc(O)cc12	-13
COc1ccc(C2C(C(=O)O)c3ccccc3C(=O)N2Cc2ccc(Cl)cc2)cc1 (configuration not stated)	-9
C[C@H]1CN([C@@H](C)CO)C(=O)c2cc(NC(=O)NC3CCCCC3)ccc2O[C@H]1CN(C)Cc1ccccc1	-6
C[C@@H]1CCCCO[C@@H](CN(C)C(=O)Nc2ccc(C(F)(F)F)cc2)[C@@H](C)CN([C@H](C)CO)C(=O)c2cc(NC(=O)NC3CCCCC3)ccc2O1	57
COc1ccc(S(=O)(=O)N(C)C[C@H]2Oc3ccc(NC(=O)CCCCCC(=O)Nc4ccccc4N)cc3C(=O)N([C@@H](C)CO)C[C@H]2C)cc1	18
C[C@H]1CN([C@@H](C)CO)C(=O)c2cccc(NS(=O)(=O)c3cccs3)c2O[C@@H]1CN(C)Cc1ccc(C(F)(F)F)cc1	20
C[C@@H]1CCCCO[C@H](CN(C)C(=O)Cc2ccccc2)[C@@H](C)CN([C@H](C)CO)C(=O)c2cc(NC(=O)c3ccncc3)ccc2O1	23
C[C@H](CO)N1C[C@H](C)[C@H](CN(C)C(=O)Nc2ccc3c(c2)OCO3)Oc2ccc(NS(C)(=O)=O)cc2C1=O	7
COc1cc(/C=C/CO)ccc1OC/C=C(\C)CCC=C(C)C	71
C[C@H]1CN([C@@H](C)CO)C(=O)Cc2cc(NC(=O)C3CCCCC3)ccc2O[C@H]1CN(C)Cc1ccc(C(F)(F)F)cc1	49
Cc1noc(C)c1S(=O)(=O)Nc1cccc2c1O[C@H](CN(C)C(=O)NC1CCCCC1)[C@H](C)CN([C@@H](C)CO)C2=O	22
Cc1nc(SCc2cccc(C(=O)O)c2)nc2c1CCCC2	9
COc1ccc(-n2ccc3ccccc32)cc1	28
O=C1Cc2ccc(F)cc2CC1C1=Cc2ccc(F)cc2CC1 (configuration not stated)	114*
CC(=O)c1ccc(NC(=O)CN(c2c(C)cccc2C)S(C)(=O)=O)cc1	-7
